# NOMO-1 viab: STK33 inhibitor candidate reducing NOMO-1 cell viability; hit rate 7.5% among 37,000; inhibition, % (concentration not given with the values); NOMO-1 AML viability, CellTiter-Glo luminescence, 72 h;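 active = most replicates above 80%; inconclusive = exactly half above 80%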;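 also: wells of about 30 µL received 25 nL stock; 0% = median of vehicle wells and 100% = reference inhibitor level; the first replicate is given; inactives centre near 10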
# An asterisk follows results filed as active; ? = inconclusive. A portion of the library; the hit share may differ from the screen's.
SMILES,NOMO-1 viab
C[C@H]1CN([C@@H](C)CO)C(=O)c2cc(NC(=O)C3CC3)ccc2O[C@H]1CN(C)Cc1ccc(C(F)(F)F)cc1,25.4
Cc1ccc2oc(-c3cccc(NC(=O)COc4cccc(C)c4C)c3)nc2c1,19.8
C[C@H]1CN([C@@H](C)CO)C(=O)c2cc(NC(=O)NC3CCCCC3)ccc2O[C@H]1CN(C)CC1CCCCC1,-11.5
Cc1noc(C)c1NC(=O)N(C)C[C@H]1Oc2ccc(NS(C)(=O)=O)cc2C(=O)N([C@@H](C)CO)C[C@H]1C,7.4
COc1ccc(NC(=O)Nc2cccc3c2O[C@@H](CN(C)S(=O)(=O)c2ccc(F)cc2)[C@H](C)CN([C@@H](C)CO)C3=O)cc1,10.9
CCCCC/C=C\C/C=C\C/C=C\C/C=C\CCCC(=O)OC(CO)CO,23.3
C[C@@H]1CCCCO[C@H](CN(C)Cc2ccccc2)[C@@H](C)CN([C@H](C)CO)C(=O)c2cc(NC(=O)Nc3ccc(F)cc3)ccc2O1,35.2
COc1ccc(S(=O)(=O)N(C)C[C@@H]2Oc3c(NS(=O)(=O)c4ccc(F)cc4)cccc3C(=O)N([C@H](C)CO)C[C@@H]2C)cc1,13.0
C[C@H]1CN([C@@H](C)CO)C(=O)Cc2cc(NC(=O)Cn3cnnn3)ccc2O[C@@H]1CN(C)C(=O)Nc1cccc2ccccc12,30.5
Cc1noc(C)c1NC(=O)N(C)C[C@@H]1Oc2ccc(NC(=O)CCN3CCOCC3)cc2C(=O)N([C@@H](C)CO)C[C@@H]1C,14.5
O=C(CSc1nnc(-c2ccccc2)o1)N1c2ccccc2CCc2ccccc21,35.4
COc1ccc(-c2nn(C)c(=O)c3ccccc23)cc1NC(=O)COc1cccc(C)c1,53.7
CC(C)NC(=O)Nc1ccc2c(c1)CC(=O)N([C@H](C)CO)C[C@@H](C)[C@@H](CN(C)C(=O)Nc1cccc3ccccc13)O2,-7.2
CS(=O)(=O)c1sc(C(=O)O)c2c1C=CCC2,-40.5
C[C@@H]1CN([C@@H](C)CO)C(=O)c2cccc(NS(=O)(=O)c3ccc(Cl)cc3)c2O[C@@H]1CN(C)Cc1ccc(C(=O)O)cc1,-2.8
Clc1ccc(OCCCCSc2ncccn2)cc1,-3.3
Cn1c(SCC(=O)Nc2ccc(F)cc2)nnc1-c1ccc([N+](=O)[O-])cc1,1.3
CNC[C@H]1Oc2ccc(NC(=O)Cc3ccccc3)cc2C(=O)N([C@H](C)CO)C[C@H]1C,-6.4
C[C@@H]1CN([C@H](C)CO)C(=O)c2cccc(NC(=O)C3CC3)c2O[C@@H]1CN(C)C(=O)NC1CCCCC1,2.7
O=C(COc1cccc2ccccc12)Nc1ccccc1C(=O)O,-7.7
Cc1cccc(SCC(=O)Nc2ccc3c(c2)OCCO3)c1,41.0
Cc1noc(C)c1S(=O)(=O)Nc1ccc2c(c1)CC(=O)N([C@H](C)CO)C[C@@H](C)[C@@H](CN(C)C(=O)NC1CCCCC1)O2,16.1
CC(C)NC(=O)N(C)C[C@H]1Oc2ccc(NC(=O)c3ccncc3)cc2C(=O)N([C@@H](C)CO)C[C@H]1C,13.3
C[C@@H]1CN([C@H](C)CO)C(=O)c2cc(NC(=O)Nc3ccc(C(F)(F)F)cc3)ccc2O[C@H]1CN(C)C,5.4
COc1ccc(N=C2SCC(=O)N2CCc2ccc(OC)c(OC)c2)cc1,26.8
CCOc1cccc2c(C)nc(Nc3nc4c(c(=O)[nH]3)CCCC4)nc12,121.4*
Cc1noc(C)c1C(=O)NCCCn1ccnc1,-4.5
O=C(CSc1nc2ccccc2c(=O)n1-c1ccc(Cl)cc1)Nc1ccccc1[N+](=O)[O-],31.2
C[C@@H]1CN([C@H](C)CO)C(=O)Cc2cc(NC(=O)Cn3cnnn3)ccc2O[C@H]1CN(C)CC1CC1,-15.6
COc1ccc(NC(=O)Nc2cccc3c2O[C@H](CN(C)C(=O)Nc2c(C)noc2C)[C@@H](C)CN([C@H](C)CO)C3=O)cc1,5.7
Cc1cccc(C2Sc3ccccc3N=C3c4ccccc4C(=O)C32)c1 (centres undefined),103.7*
C[C@H](CO)N1C[C@H](C)[C@@H](CN(C)S(C)(=O)=O)Oc2c(NC(=O)NC3CCCCC3)cccc2C1=O,6.5
CC(C)NS(=O)(=O)c1ccc(OCC(=O)N2CCOCC2)c(Cl)c1,20.0
CNC[C@H]1Oc2ccc(NC(=O)c3ccncc3)cc2C(=O)N([C@@H](C)CO)C[C@H]1C,-9.7
C=C(COC(=O)C(C)C)C1Oc2cc(C(C)=O)ccc2C1OC(=O)C(C)C (centres undefined),17.1
C[C@H](CO)N1C[C@H](C)[C@H](CN(C)S(C)(=O)=O)Oc2c(NC(=O)Nc3ccccc3)cccc2C1=O,-7.6
COc1ccc(CN(C)C[C@H]2Oc3c(NS(=O)(=O)c4ccc(Cl)cc4)cccc3C(=O)N([C@H](C)CO)C[C@H]2C)cc1,2.6
O=S(=O)(NCCc1c[nH]c2ccccc12)c1ccc(Cl)c(Cl)c1,?
CCc1ccc(-c2nc3cc(NC(=O)COc4ccccc4[N+](=O)[O-])ccc3o2)cc1,7.0
Cc1ccc(S(=O)(=O)N(C)C[C@@H]2Oc3c(NS(=O)(=O)c4c(C)noc4C)cccc3C(=O)N([C@@H](C)CO)C[C@@H]2C)cc1,-6.0
COc1ccc(NC(=O)N(C)C[C@H]2Oc3ccc(NC(=O)Nc4ccc(F)cc4)cc3C(=O)N([C@@H](C)CO)C[C@H]2C)cc1,8.9
Cc1nnc(SCC(=O)c2ccc([N+](=O)[O-])cc2)s1,10.9
CCOc1ccc(-n2nc3ccc(NC(=O)COc4ccccc4Cl)cc3n2)cc1,57.9
C[C@H](CO)N1C[C@H](C)[C@H](CN(C)CC2CCCCC2)Oc2c(NC(=O)c3ccncc3)cccc2C1=O,7.3
C[C@H](CO)N1C[C@H](C)[C@@H](CN(C)C(=O)NC2CCCCC2)Oc2ccc(NC(=O)Cn3cnnn3)cc2C1=O,-5.3

# 3 entries already listed, sorted by molar mass, ascending.
SMILES,NOMO-1 viab
C[C@H](CO)N1C[C@H](C)[C@H](CN(C)S(C)(=O)=O)Oc2c(NC(=O)Nc3ccccc3)cccc2C1=O,-7.6
C[C@H](CO)N1C[C@H](C)[C@@H](CN(C)C(=O)NC2CCCCC2)Oc2ccc(NC(=O)Cn3cnnn3)cc2C1=O,-5.3
Cc1ccc(S(=O)(=O)N(C)C[C@@H]2Oc3c(NS(=O)(=O)c4c(C)noc4C)cccc3C(=O)N([C@@H](C)CO)C[C@@H]2C)cc1,-6.0

# (listing goes on)
SMILES,NOMO-1 viab
CSc1c(C#N)c(-c2ccc(Cl)cc2)nn1C,27.6
CC(C)=CCc1c(-c2ccc(O)cc2O)oc2c3c(cc(O)c2c1=O)OC(C)(C)C=C3,?
Cc1noc(C)c1S(=O)(=O)Nc1ccc2c(c1)C(=O)N([C@@H](C)CO)C[C@H](C)[C@H](CN(C)C(=O)NC1CCCCC1)O2,4.7
COc1ccc(CN(C)C[C@H]2OCCCC[C@@H](C)Oc3ccc(NC(=O)CCCCCC(=O)Nc4ccccc4N)cc3C(=O)N([C@H](C)CO)C[C@@H]2C)cc1,29.0
C[C@@H]1CN([C@H](C)CO)C(=O)Cc2cc(NC(=O)CCN3CCOCC3)ccc2O[C@@H]1CN(C)Cc1ccc2c(c1)OCO2,8.3
Cc1noc(C)c1S(=O)(=O)Nc1ccc2c(c1)C(=O)N([C@@H](C)CO)C[C@@H](C)[C@H](CN(C)C(=O)Nc1ccc3c(c1)OCO3)O2,1.8
C[C@H](CO)N1C[C@H](C)[C@@H](CN(C)C(=O)Nc2ccc3c(c2)OCO3)Oc2ccc(NC(=O)Nc3ccc(F)cc3)cc2C1=O,0.0
Cc1noc(C)c1S(=O)(=O)Nc1ccc2c(c1)CC(=O)N([C@H](C)CO)C[C@@H](C)[C@H](CN(C)S(=O)(=O)c1ccccc1)O2,9.4
CC(=O)Nc1ccc(NC(=O)Cn2ccc([N+](=O)[O-])n2)cc1,10.1
C[C@@H]1CN([C@@H](C)CO)C(=O)c2cccc(NS(C)(=O)=O)c2O[C@@H]1CN(C)C(=O)Nc1ccc2c(c1)OCO2,2.4
C[C@H]1CN([C@@H](C)CO)C(=O)Cc2cc(NC(=O)NC3CCCCC3)ccc2O[C@H]1CN(C)Cc1ccc(Oc2ccccc2)cc1,27.9
C[C@H]1CN([C@@H](C)CO)C(=O)Cc2cc(NC(=O)C3CC3)ccc2O[C@@H]1CN(C)C(=O)Nc1ccccc1,1.9
COc1cc(C(=O)NC(C(=O)O)C(C)C)cc(OC)c1OC (centres undefined),1.1
CC(=O)OC(CCCCc1ccc(O)c(O)c1)CCc1ccc(O)c(O)c1 (centres undefined),35.2
C[C@H](CO)N1C[C@H](C)[C@@H](CN(C)C(=O)Nc2cccc3ccccc23)Oc2ccc(N(C)C)cc2C1=O,0.9

# Four of these compounds, reformatted.
> C[C@@H]1CN([C@@H](C)CO)C(=O)c2cccc(NS(C)(=O)=O)c2O[C@@H]1CN(C)C(=O)Nc1ccc2c(c1)OCO2
  NOMO-1 viab: 2.4

> COc1cc(C(=O)NC(C(=O)O)C(C)C)cc(OC)c1OC (centres undefined)
  NOMO-1 viab: 1.1

> C[C@H]1CN([C@@H](C)CO)C(=O)Cc2cc(NC(=O)C3CC3)ccc2O[C@@H]1CN(C)C(=O)Nc1ccccc1
  NOMO-1 viab: 1.9

> Cc1noc(C)c1S(=O)(=O)Nc1ccc2c(c1)C(=O)N([C@@H](C)CO)C[C@H](C)[C@H](CN(C)C(=O)NC1CCCCC1)O2
  NOMO-1 viab: 4.7

# More entries.
SMILES,NOMO-1 viab
COc1ccc(CN(C)C[C@@H]2Oc3ccc(NC(=O)NC(C)C)cc3C(=O)N([C@H](C)CO)C[C@H]2C)cc1,-2.5
C[C@@H]1CN([C@H](C)CO)C(=O)c2cc(NC(=O)CCC(F)(F)F)ccc2O[C@H]1CN(C)Cc1ccc(C(F)(F)F)cc1,20.9
CCn1c(SCC(=O)c2ccc(OC)cc2)nnc1-c1cc2cc(Br)ccc2o1,-20.4
C[C@@H]1CN([C@@H](C)CO)C(=O)Cc2cc(NC(=O)Cc3cn(C)c4ccccc34)ccc2O[C@@H]1CN(C)Cc1ccc2c(c1)OCO2,31.4
C(=NCc1ccco1)c1cn(-c2ccccc2)nc1-c1ccccc1,104.9*
CCCOC(=O)Nc1cccc(C(=O)OCCC)c1,-5.0
C[C@@H]1CCCCO[C@@H](CN(C)S(=O)(=O)c2ccc(Cl)cc2)[C@@H](C)CN([C@H](C)CO)C(=O)c2cc(NS(=O)(=O)c3ccc(Cl)cc3)ccc2O1,90.7*
C[C@@H]1CCCCO[C@H](CN(C)Cc2ccccc2)[C@@H](C)CN([C@H](C)CO)C(=O)c2cc(NC(=O)CCC(F)(F)F)ccc2O1,-0.2
C[C@H](CO)N1C[C@H](C)[C@@H](CN(C)Cc2ccc(Oc3ccccc3)cc2)Oc2c(NS(C)(=O)=O)cccc2C1=O,16.3
O=C(CN1C(=O)c2ccccc2S1(=O)=O)Nc1cc(Cl)ccc1Oc1ccccc1,0.2
C[C@H]1CN([C@@H](C)CO)C(=O)Cc2cc(NS(=O)(=O)c3ccccc3)ccc2O[C@@H]1CN(C)C(=O)Nc1ccc2c(c1)OCO2,26.3
O=C(c1ccco1)N1N=C2c3ccccc3CCC2C1c1ccc(F)cc1 (centres undefined),47.9
C=CCN(CC=C)C(=O)Cc1ccccc1OC,30.6
Cn1cnnc1SC1CCCCC1NS(=O)(=O)c1ccccc1 (centres undefined),-15.4
C[C@@H]1CN([C@@H](C)CO)C(=O)Cc2cc(NC(=O)CCN3CCOCC3)ccc2O[C@@H]1CN(C)C(=O)NC1CCCCC1,-7.6
Cc1ccc(S(=O)(=O)N(C)C[C@@H]2Oc3ccc(NC(=O)Cc4ccccc4)cc3C(=O)N([C@@H](C)CO)C[C@@H]2C)cc1,21.7
COc1ccc(S(=O)(=O)Nc2ccc3c(c2)CC(=O)N([C@@H](C)CO)C[C@H](C)[C@@H](CN(C)C)O3)cc1,13.8
O=C(COc1cccc2ccccc12)Nc1cccnc1,7.4
Cc1noc(C)c1NC(=O)Nc1ccc2c(c1)C(=O)N([C@H](C)CO)C[C@H](C)[C@H](CN(C)Cc1ccc(Oc3ccccc3)cc1)O2,30.0
COc1ccc(NC(=O)Nc2cccc3c2O[C@@H](CN(C)Cc2ccc4c(c2)OCO4)[C@@H](C)CN([C@H](C)CO)C3=O)cc1,89.2*
O=C(CC1C(=O)N(c2ccccc2)C(=O)N1Cc1cccs1)Nc1ccccc1 (centres undefined),19.7
Cc1noc(C)c1NC(=O)N(C)C[C@H]1Oc2ccc(NC(=O)CCC(F)(F)F)cc2C(=O)N([C@H](C)CO)C[C@H]1C,4.2
COc1ccc(S(=O)(=O)N(C)C[C@H]2Oc3ccc(NC(=O)NC(C)C)cc3C(=O)N([C@H](C)CO)C[C@H]2C)cc1,25.1
O=C(COC(=O)c1c(C(F)(F)F)cccc1C(F)(F)F)c1ccc(Cl)cc1,110.7*
C[C@@H]1CN([C@@H](C)CO)C(=O)c2cccc(NS(=O)(=O)c3cn(C)cn3)c2O[C@@H]1CN(C)S(=O)(=O)c1cn(C)cn1,2.4
O=C(O)COc1c(-c2ccccc2)oc2ccccc2c1=O,-4.7
C[C@@H]1CN([C@H](C)CO)C(=O)Cc2cc(NC(=O)CCN3CCOCC3)ccc2O[C@@H]1CN(C)Cc1ccncc1,15.7
Cc1ccc(S(=O)(=O)Nc2ccc3c(c2)CC(=O)N([C@H](C)CO)C[C@@H](C)[C@H](CN(C)C(=O)Nc2ccc(C(F)(F)F)cc2)O3)cc1,24.3
C[C@@H]1CN([C@@H](C)CO)C(=O)c2cccc(NS(=O)(=O)c3cccs3)c2O[C@@H]1CN(C)Cc1ccc(-c2ccccc2)cc1,23.7
C[C@@H]1CCCCO[C@H](CN(C)S(=O)(=O)c2ccccc2)[C@@H](C)CN([C@H](C)CO)C(=O)c2cc(NC(=O)Nc3ccc(F)cc3)ccc2O1,33.7
C[C@@H]1CN([C@H](C)CO)C(=O)c2cccc(NC(=O)c3nc4ccccc4s3)c2O[C@H]1CN(C)CC1CCCCC1,116.1*
Cc1noc(C)c1NC(=O)Nc1ccc2c(c1)CC(=O)N([C@H](C)CO)C[C@@H](C)[C@@H](CN(C)C(=O)Nc1ccc(C(F)(F)F)cc1)O2,-2.8
C[C@H](CO)N1C[C@H](C)[C@H](CN(C)C)Oc2ccc(NC(=O)Nc3ccc(F)cc3)cc2CC1=O,-3.1
